High-throughput results: PubChem BioAssay, several laboratories
Calb FLC: C. albicans growth modulation with fluconazole; C. albicans CaCi-2 (fluconazole-resistant clinical isolate) + fluconazole, Alamar Blue growth, 48 h; 300,000 compounds, 0.57% hits; growth inhibition, % (concentration not given with the values);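 active = most replicates above 75%; inconclusive = exactly half above 75%; inactive = most below 75%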;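 also: all wells also contain fluconazole at 8 µg/ml as a sub-toxic cotreatment; 0% = median of DMSO wells and 100% = median of geldanamycin control wells; wells of about 8 µL received 7.5 nL stock; the first replicate is given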
HNF4A DNA FP: change in binding of human HNF4 alpha to DNA; HNF4a-FITC DNA binding, fluorescence polarization, 1 h; activity change, % at 10 µM; 360,000 compounds, 0.3% hits; AID 1224865; in the data active = activity change above about 30%, passing the limit was not always enough;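 also: controls were the assay level and a saturating level of protein; the project sought stronger binding though the title names inhibitors; some compounds called inactive have numbers as strong as hits; positive values seem to mean higher polarization but the record does not say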
Target sequence (P41235 whole entry, looked up): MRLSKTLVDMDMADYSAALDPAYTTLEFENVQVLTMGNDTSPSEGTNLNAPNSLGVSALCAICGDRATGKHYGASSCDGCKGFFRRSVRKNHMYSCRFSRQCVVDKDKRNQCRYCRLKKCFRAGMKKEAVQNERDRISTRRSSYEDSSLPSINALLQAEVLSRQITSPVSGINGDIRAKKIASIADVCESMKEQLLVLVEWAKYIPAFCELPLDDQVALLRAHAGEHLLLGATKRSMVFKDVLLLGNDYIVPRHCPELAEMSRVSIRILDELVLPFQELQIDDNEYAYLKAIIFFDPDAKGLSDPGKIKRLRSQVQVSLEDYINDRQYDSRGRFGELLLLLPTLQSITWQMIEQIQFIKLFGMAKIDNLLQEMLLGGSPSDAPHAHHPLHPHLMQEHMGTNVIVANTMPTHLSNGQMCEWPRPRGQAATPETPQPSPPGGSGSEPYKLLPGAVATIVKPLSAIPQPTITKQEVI
LANA-H2B inh: blocks KSHV LANA binding to histone H2A/H2B; Q9QR71; cell-free LANA-H2A/H2B peptide, fluorescence polarization; inhibition, % (no concentration beside the values); 320,000 compounds, 0.6% hits; AID 2629; in the data active = inhibition mostly above about 10%, no sharp cut-off; inactive = mostly below about 6.7%;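 also: stock transfer was 7.5 nL into about 10 µL; 0% = median of vehicle wells and 100% = median of positive control wells; one replicate is shown; the record names a cut of 25% in any replicate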
Vif TR-FRET: HIV-1 Vif–A3G interaction blockers – biochemical, TR-FRET, GST-Vif 1-94, biotin-A3G peptide, dose response retest, primary screen (AID 1117319) | one-dose inhibition, %; IC50 in µM for titrated hits | 260,000 compounds, 0.57% hits | TR-FRET GST-Vif / biotin-A3G peptide binding; higher % means a stronger effect; test concentration not given here; strong numbers were not always called active;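 active = above the screen mean plus three standard deviations and confirmed in dose response; inconclusive = results disagree or hit not tested in dose response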;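 also: Vif residues 1-94 fused to GST binding biotinylated APOBEC3G peptide 110-148; 0% = full assay without inhibitor and 100% = GST in place of GST-Vif; retest series ran down from 100 µM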
RanGTP-Impb inh: disruptors of Ran-importin-beta complex formation – biochemical, FRET, CFP-Ran, YFP-importin-beta, homogeneous, primary screen; cell-free CFP-Ran/YFP-importin-beta FRET ratio; inhibition, % (test concentration not listed); 300,000 compounds, 1.1% hits;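 active = most replicates above 15%; inconclusive = exactly half above 15%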;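 also: 0% = DMSO wells and 100% = Ran loaded with GDP instead of GTP; wells of about 40 µL received 100 nL stock; the first replicate is given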
ALR inh: blocks human ALR sulfhydryl oxidase activity; P55789; purified ALR, DTT oxidation, H2O2 HRP-luminol luminescence; inhibition, % (concentration not given with the values); 290,000 compounds, 3.8% hits; AID 485317;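 active = mean and each replicate at 75% or more; inconclusive = only one of the two met; inactive = neither met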;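 also: stock transfer was 7.5 nL into about 7.5 µL; 0% = neutral wells and 100% = wells with inactivated enzyme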
Target sequence (P55789 whole entry, looked up): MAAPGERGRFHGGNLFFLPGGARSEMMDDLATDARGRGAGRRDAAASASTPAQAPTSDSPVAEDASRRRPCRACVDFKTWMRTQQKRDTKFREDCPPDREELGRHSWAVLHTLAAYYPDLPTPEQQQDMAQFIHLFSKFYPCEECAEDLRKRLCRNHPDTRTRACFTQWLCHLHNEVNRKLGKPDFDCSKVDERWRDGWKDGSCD
Beta2AR agonist: activates human beta-2 adrenergic receptor causing internalization; Am2.2-beta2AR cells, FAP receptor internalization, flow cytometry; reference of the scale not given here; response, % (concentration not given with the values); 340,000 compounds, 0.43% hits;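 active = response above a set limit, near 3 SD of response in nonfluorescent compounds, cut at about 42% in these data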;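 also: stock transfer was 100 nL into about 11 µL; a reference agonist was the positive control; negative values mostly stem from fluorescent compounds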
Target sequence (P07550 whole entry, looked up): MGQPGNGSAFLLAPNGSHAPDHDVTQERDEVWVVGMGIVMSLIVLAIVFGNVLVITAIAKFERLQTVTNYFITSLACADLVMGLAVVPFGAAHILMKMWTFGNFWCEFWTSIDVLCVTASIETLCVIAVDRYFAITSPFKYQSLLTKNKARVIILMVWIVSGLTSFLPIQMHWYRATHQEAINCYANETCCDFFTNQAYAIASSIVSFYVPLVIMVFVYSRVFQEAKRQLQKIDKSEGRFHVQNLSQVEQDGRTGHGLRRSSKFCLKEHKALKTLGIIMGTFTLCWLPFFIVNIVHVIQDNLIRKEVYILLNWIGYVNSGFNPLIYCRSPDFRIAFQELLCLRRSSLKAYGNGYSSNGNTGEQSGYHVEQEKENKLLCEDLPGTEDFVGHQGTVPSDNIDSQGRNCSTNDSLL
Numbers without * were called inactive; ? = inconclusive; . = not tested or not shown.

SMILES	Calb FLC	HNF4A DNA FP	LANA-H2B inh	Vif TR-FRET	RanGTP-Impb inh	ALR inh	Beta2AR agonist
O=C(Cc1ccc(-n2c(=O)[nH]c3ccsc3c2=O)cc1)N1CCN(c2ccc(Cl)cc2)CC1	-5	4.8	0.3	26%	-1.2	-4	4
COc1ccc(S(=O)(=O)Cc2ccc(C(=O)NCc3ccccc3OC)o2)cc1	-7	0.4	-3.4	.	1.9	-1	3
Cc1nc(C)c(C(=O)N2CCCC(C(=O)c3cc(F)ccc3F)C2)s1 (stereo not given)	0	5.9	2.0	-4%	0.0	-4	2
O/N=C1\CCCCc2ccccc21	-7	0.4	-7.0	-6%	-0.3	-1	-2
O=C(Cn1c(C(=O)O)cc2ccccc21)c1ccccc1	-2	1.2	2.1	.	?	-13	-5
CCCCOc1ccccc1N	2	4.7	-1.4	-2%	-4.9	-9	0
CC1CCC2(CC1)NC(=O)N(CC(=O)Nc1ccc(F)cc1)C2=O (stereo not given)	.	-1.3	38*	-12%	.	-3	4
O=C(NCCc1ccc(F)cc1)C(=O)NCC1CCCN1S(=O)(=O)c1ccccc1 (stereo not given)	13	-1.2	2.6	-3%	2.1	-2	-7
NS(=O)(=O)c1cccc(NC(=O)Cn2nc(C(=O)O)c3ccccc3c2=O)c1	3	2.1	1.5	.	-7.2	1	10
CCc1nn2c(=O)cc(CSCC(=O)Nc3ccccc3F)nc2s1	0	2.2	.	.	4.1	99*	-3
CC(C)(C)OC(=O)C[C@@H]1C/C=C\C[C@H](CC(=O)N(CCO)Cc2ccccc2)C(=O)NC[C@@H](c2ccccc2)OC1=O	.	-0.5	4.9	.	.	-1	-10
C=C1CCN([C@H](C(=O)OCc2ccc(C)cc2)C(C)C)S(=O)(=O)c2ccccc21	.	-4.6	-0.2	.	.	-4	-3
COc1cc(CNC(=O)C2CC2)ccc1OCc1ccccc1	-8	4.7	3.3	.	0.7	-1	-4
O=C(/C=C/c1ccco1)Nc1nc(-c2ccc(F)c(F)c2)cs1	-3	.	0.4	.	-4.1	-6	.
N#CC(=C1SC=CS1)c1nc(-c2ccccc2)cs1	-2	3.8	-2.7	68%	?	-2	5
Cc1ccc(N2C(=O)c3ccccc3C2Nc2ccccc2F)nc1 (stereo not given)	10	2.4	5.2	?	0.0	-3	1
COc1ccc(C(=O)N2N=C(c3cccc(NS(C)(=O)=O)c3)CC2c2cccs2)cc1 (stereo not given)	-1	-0.4	-7.0	2%	0.5	-3	4
CN(C)c1ccc(/C=C2\Oc3ccc(C#Cc4cccc(N)c4)cc3C2=O)cc1	.	146	5.4	.	.	-1	-80
CC(C)(C)c1ccc(C(=O)NN2CCOCC2)cc1	-14	-3.1	1.9	-2%	2.2	2	8
Cc1ccccc1-c1nnc(CN2CCC(C)CC2)o1	0	2.7	0.1	0%	-0.6	-3	-1
COc1ccc(NC(=O)CN(C)C(=O)c2ccc(COc3ccccc3)o2)cc1	-5	-1.9	2.5	3%	2.6	.	-8
CCOC(=O)c1sc(-c2cccs2)nc1C	0	-9.8	-2.4	1%	-1.1	-7	2
CC(CC(=O)N1CCN(c2ccccc2F)CC1)c1ccccc1 (stereo not given)	2	6.2	-1.0	.	1.9	1	7
CCn1c(SCC(=O)NCc2ccco2)nc2c1c(=O)n(C)c(=O)n2C	12	1.3	-2.9	8%	1.0	-15	2
Cc1cc(C)n(-c2ccc(Cl)c(C(=O)O)c2)n1	-15	3.8	1.3	2%	2.6	-5	-2
COc1ccc(C(=O)OCC(=O)NC(C)CCc2ccccc2)cc1 (stereo not given)	10	-0.7	4.1	-6%	2.9	26	-4
Cc1cnccc1CNC(=O)CC1C(=O)NCCN1CC(C)(C)C (stereo not given)	24	0.5	4.9	8%	?	-7	-4
CSc1nc(N)nc2c1ncn2CC(=O)NCC1CCCO1 (stereo not given)	.	-0.1	-4.0	3%	.	.	-6
COC(=O)c1cc(S(=O)(=O)NCC2CCN(Cc3ccc(C)cc3)CC2)c[nH]1	5	1.8	0.3	6%	0.5	3	-1
Cc1cc(N)n(Cc2cccs2)n1	-2	-1.5	-0.9	33%	-2.9	2	-1
CCc1noc(C)c1C(=O)OCC(=O)c1ccccc1OC	4	3.2	-3.6	2%	?	-5	-5
CCOC(=O)CSC1=C(C#N)C(c2ccc(Cl)cc2)CC(=O)N1 (stereo not given)	18	-5.0	-1.0	4%	2.2	4	16
CCCCC(=O)Nc1nnc(SCC(=O)NC2CCCC2)s1	?	4.2	1.6	0%	0.2	-3	-2
CN(C)S(=O)(=O)N1CCC(Oc2cccc(C(=O)N3CCCCCC3)c2)CC1	0	4.5	1.2	-5%	-0.3	4	0
Cc1cccn2c(=O)c3cc(C(=O)NCC4CCCO4)c(=N)n(CCN4CCOCC4)c3nc12 (stereo not given)	11	-0.8	-1.5	15%	106*	2	-7
Cc1ccc(CC(=O)Nc2nc3ccccc3s2)cc1	-4	-0.4	24*	-4%	-3.7	-1	-1
CC(=O)c1c(C(C)=O)c(C)n(NC(=O)c2ccc(Cl)cc2)c1C	-10	-22	-4.0	6%	1.3	-4	2
CCSc1ncc(C#N)c(=O)[nH]1	25	0.1	4.1	3%	1.2	.	6
CCCC1(C)C(C#N)C(=O)NC(=O)C1C#N (stereo not given)	.	1.9	.	-1%	.	.	0
COc1cc2cc(CN(Cc3nnnn3Cc3ccccc3)CC3CCCO3)c(=O)[nH]c2cc1OC (stereo not given)	6	-3.5	.	5%	-42	.	-7
CC(C)(C)C(=O)/C=c1\s/c(=C\c2ccc(-c3ccc([N+](=O)[O-])cc3)o2)c(=O)n1CC(=O)NC(N)=O	-4	96	-2.2	-3%	-1.2	?	.
CCn1c(SCC(=O)c2c[nH]c3ccccc23)nnc1-c1cccs1	8	19	-5.6	-12%	1.7	-31	-49
Cc1ccc(C(=O)N/C(=C/c2ccco2)C(=O)NCCc2c[nH]c3ccccc23)cc1	1	4.8	3.8	.	2.2	.	-4
COc1ccccc1C(=O)Nc1cc(Cl)ccc1O	1	-2.3	-1.9	32%	3.3	-4	-7
Cc1ccc2c(c1)C1CN(C)CCC1N2C(=O)c1ccc(Cl)c(S(=O)(=O)N2CCOCC2)c1 (stereo not given)	-1	2.4	-1.9	.	-0.1	-1	20
CC(C)(C)C(=O)Nc1c(Cl)cccc1OC(F)(F)F	4	-1.7	-0.9	-13%	?	.	12
O=C(CNC(=O)c1cccc(Br)c1)N/N=C/c1cccnc1	7	-0.7	1.4	.	4.4	1	2
O=C(NNC(=O)C1CCCC1)c1cc([N+](=O)[O-])cc([N+](=O)[O-])c1	.	1.5	1.4	-3%	.	.	-6
O=c1ccc2cc(S(=O)(=O)NCc3ccccc3)ccc2[nH]1	2	0.7	-6.5	.	1.2	-17	-2
CCOC(=O)/C(C#N)=C1/C=CNC(=O)N1	32	2.0	0.8	-2%	-1.8	-7	7
O=C(NNc1cccc(Cl)n1)Nc1cccc(Cl)c1	-21	-1.1	-2.8	-1%	-1.8	5	2
O=c1[nH]n(-c2ccc([N+](=O)[O-])cc2)c(=O)c2ccccc12	18	-6.8	1.5	1%	1.5	46	0
Cc1cc(C(=O)O/N=C(\N)c2ccc(C(C)(C)C)cc2)no1	4	1.9	0.1	-8%	-6.0	.	-3
CCCOc1ccc(-c2nc(SCc3ccccc3)[nH]c(=O)c2C#N)cc1OC	43	0.4	-1.0	-20%	-0.6	12	13
COc1cc(OC)cc(-c2nnc(NC(=O)c3ccc4c(c3)OCCO4)o2)c1	-14	-0.4	-0.4	.	4.2	-4	1
CC(C)N(C(=O)[C@H]1C[C@H](CC(=O)NCc2cccc(C(F)(F)F)c2)C(=O)N2CCc3c([nH]c4cc(-c5ccco5)ccc34)[C@]12C)C(C)C	.	2.3	.	0%	.	.	-5
CC(C)CNC(=O)CC(=O)N/N=C/c1ccc(F)cc1	8	3.0	4.2	0%	0.3	-15	3
COC(=O)c1cc2ccccc2n1Cc1ccc(Cl)nc1	-22	-2.5	-2.8	8%	1.4	4	1
Cc1ccccc1NC(=O)c1ccc(NC(=O)c2ccco2)cc1	-21	0.7	3.3	-4%	.	-6	-11
CC(=O)c1cccc(NC(=O)N2CCC(NC(=O)C3CCCCC3)CC2)c1	-9	-0.9	3.4	.	-4.2	2	-6

The last 2 records of the section before are carried over, then new ones follow.
SMILES	Calb FLC	HNF4A DNA FP	LANA-H2B inh	Vif TR-FRET	RanGTP-Impb inh	ALR inh	Beta2AR agonist
Cc1ccccc1NC(=O)c1ccc(NC(=O)c2ccco2)cc1	-21	0.7	3.3	-4%	.	-6	-11
CC(=O)c1cccc(NC(=O)N2CCC(NC(=O)C3CCCCC3)CC2)c1	-9	-0.9	3.4	.	-4.2	2	-6
COc1cccc(C2CC(=O)Nc3cc4c(cc32)CCC4)c1 (stereo not given)	-22	3.9	5.2	6%	-2.5	-3	-4
Cc1[nH]c2ccccc2c1Cc1nnc(SCc2ccccc2)o1	34	1.2	-2.2	71µM*	4.4	57	0
CN1C(=O)c2ccccc2C(C(=O)NCc2ccco2)C1c1c[nH]c2ccccc12 (stereo not given)	1	0.3	5.2	1%	7.7	-13	-4
O=C(CSc1nnc(-c2ccc(C(F)(F)F)cn2)o1)Nc1cccc(Cl)c1	4	5.6	5.5	.	2.1	3	-3
Cn1c2c(c(=O)n(C)c1=O)C1c3cc(Cl)ccc3OCC1CO2 (stereo not given)	13	-4.3	-2.1	-5%	1.6	5	-1
Cc1cc(C)c(S(=O)(=O)N2CCCCC2CCNC(=O)C(=O)NCc2ccco2)c(C)c1 (stereo not given)	-8	-0.9	1.9	4%	?	-1	-7
O=C(NCc1ccco1)C(c1cccnc1)N(C(=O)Cn1nnc2ccccc21)c1ccccc1 (stereo not given)	-1	2.4	-4.7	2%	-3.4	-1	9
Cc1cccc(C(=O)Nc2oc(-c3ccccc3)cc2C#N)c1	1	-0.1	-2.4	-8%	3.7	.	0
COc1ccccc1CC(=O)Nc1cccc(C(=O)NN2C(=O)c3ccccc3C2=O)c1	4	1.8	-4.1	17%	5.6	-1	10
COCc1cc(=O)n2[nH]c(SCc3ccccc3)nc2n1	3	0.4	-2.6	5%	-0.6	5	7
NNC(=O)c1cc2sccc2s1	5	1.9	-2.6	-3%	-3.1	98*	3
COc1ccccc1CNCCS(=O)(=O)NN1CCOCC1	.	-3.1	.	7%	.	.	-5
CCc1ccccc1NNC(=O)c1cc(C)on1	-26	-0.2	6.3	-9%	-0.6	-9	-9
COc1ccc2c(c1)c(C(=O)N/N=C/c1ccc(Br)cc1)c(C)n2C	1	3.6	-1.9	2%	0.8	.	8
O=C(CSc1ccc2ccccc2c1)Nn1cnnc1	-6	2.2	2.4	1%	?	51	8
C=CCn1c(SCC2=C(C(=O)OCC)C(C)NC(=O)N2)nnc1C1CCCCC1 (stereo not given)	-2	-1.2	2.8	?	0.4	-4	2
COc1ccccc1-n1cnc2cc(NCc3ccccn3)ccc21	-7	-1.9	2.1	16%	9.8	0	2
Cc1c(NCc2cccnc2)cccc1C(=O)O	3	1.6	4.3	5%	4.0	-8	5
O=C(NCc1ccc(F)cc1)c1cc(C(=O)C2CC2)c[nH]1	-1	-0.4	-0.8	4%	-5.1	-4	3
CCn1c(O)c(/C=N/N=C2CCCC2)c2ccc(C3=NNC(=O)CC3)cc21	-7	4.2	3.0	9%	3.2	22	17
CCCCn1c(=O)[nH]c(=O)c2c1nc(CN1C(=O)c3ccccc3S1(=O)=O)n2CCC	-3	-2.8	2.8	-4%	-1.4	7	0
Cc1ccc(C)n1C1CCS(=O)(=O)C1 (stereo not given)	-18	-1.2	-1.6	1%	-5.3	-2	0
